# Screens deposited in PubChem BioAssay by Johns Hopkins Ion Channel Center.
# KCNQ2 enhance – potentiators of rat KCNQ2 potassium channel. Potassium voltage-gated channel subfamily KQT member 2 (Rattus norvegicus), O88943. CHO-K1 KCNQ2, FluxOR thallium flux fluorescence; active compounds read high. B-score at 10 µM. 0.54% of 310,000 active. AID 2239, 2010;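 active = fluorescence ratio B-score at least 3 SD of library B-scores, with initial fluorescence B-score within 3 SD, cut at about 5.3 in these data; same plate scores as AID 2156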;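 also: B-score of peak minus minimum over baseline fluorescence ratio after K+ and Tl+ stimulus; positive B-score means potentiation of KCNQ2 with more thallium influx and brighter signal; only the inactives scoring about 0 or higher are listed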
# Target sequence (O88943 whole entry, looked up): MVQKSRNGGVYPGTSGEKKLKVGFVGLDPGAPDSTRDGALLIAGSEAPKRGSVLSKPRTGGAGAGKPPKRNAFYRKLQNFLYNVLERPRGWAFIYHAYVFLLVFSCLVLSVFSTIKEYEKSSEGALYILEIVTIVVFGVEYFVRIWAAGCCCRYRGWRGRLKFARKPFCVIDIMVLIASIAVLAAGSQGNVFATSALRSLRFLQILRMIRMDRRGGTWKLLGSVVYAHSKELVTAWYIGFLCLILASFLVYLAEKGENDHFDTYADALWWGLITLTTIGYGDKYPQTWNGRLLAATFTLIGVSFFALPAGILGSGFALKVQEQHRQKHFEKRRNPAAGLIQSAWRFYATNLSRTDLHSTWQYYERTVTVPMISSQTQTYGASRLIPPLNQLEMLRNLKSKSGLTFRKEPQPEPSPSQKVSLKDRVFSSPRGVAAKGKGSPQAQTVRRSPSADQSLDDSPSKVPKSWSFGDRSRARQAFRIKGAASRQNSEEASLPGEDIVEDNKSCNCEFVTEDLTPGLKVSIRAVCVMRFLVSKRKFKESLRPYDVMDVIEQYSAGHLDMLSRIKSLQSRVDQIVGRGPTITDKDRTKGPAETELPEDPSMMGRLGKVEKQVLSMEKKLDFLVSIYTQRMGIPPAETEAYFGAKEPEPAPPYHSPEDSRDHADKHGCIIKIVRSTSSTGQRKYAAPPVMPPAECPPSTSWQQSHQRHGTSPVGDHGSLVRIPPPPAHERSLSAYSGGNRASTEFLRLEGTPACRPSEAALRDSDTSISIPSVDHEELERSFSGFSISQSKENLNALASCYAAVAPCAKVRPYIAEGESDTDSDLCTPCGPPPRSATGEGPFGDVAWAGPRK
# KCNQ2 enhance baseline – second read-out of KCNQ2 enhance, no call of its own (marks repeat the call); B-score; compound at 10 µM; measured here: initial fluorescence intensity artifact check;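 brightness before thallium and not channel activity; 0 = typical well and far values either way flag optical interference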
# * = called active by the depositor. Only part of the results is shown; rates above refer to the full screens.
no.	compound	KCNQ2 enhance	KCNQ2 enhance baseline
1	Cc1cc(C)nc(SC(C(=O)O)c2ccccc2)n1 (stereo not given)	1.6	-0.96
2	COC(=O)C(Cc1c[nH]c2ccccc12)NC(=O)CNC(C)=O (stereo not given)	0.37	0.27
3	O=c1cc(CSc2nnnn2-c2ccccc2)nc2scc(-c3ccccc3)n12	2.7	-4
4	COc1ccc(C(=O)CSc2nc3c(c(=O)n(C)c(=O)n3C)n2C)cc1	1.2	0.12
5	O/N=C1\CCCc2nnc3c(c21)CCCC3	1.3	-2.3
6	Cc1ccccc1NC(=O)C[n+]1cc(-c2ccccc2)n2c1CCC2	0.95	1.2
7	O=C(COC(=O)C1=COCCO1)Nc1cccc(Oc2ccccc2)c1	2.2	-0.49
8	CCc1ccc(NC(=S)N2CCCCCCC2)cc1	0.75	-0.02
9	CC1=C(C#N)C(NC(=O)c2ccc(C)cc2)(C(F)(F)F)C(=O)N1 (stereo not given)	1.1	-0.79
10	COc1ccc(-c2noc(CCC(=O)NCc3cc(Br)ccc3OC)n2)cc1	0.09	0.29
11	c1cnc(NC2C3CC4CC(C3)CC2C4)nc1 (stereo not given)	0.3	-0.02
12	Cc1cc(C)c(S(=O)(=O)NCc2cn3c(C)csc3n2)cc1C	0.83	-0.62
13	Cc1ccccc1Cn1ccc(NC(=O)c2cc3nc(-c4ccco4)cc(C(F)(F)F)n3n2)n1	0.32	-1.9
14	CCC(Sc1nc2ncccc2[nH]1)C(=O)NCCc1ccccc1 (stereo not given)	1.1	-1.2
15	O=[N+]([O-])c1ccc(N2CCCCC2)nc1N1CCCCC1	0.46	-1.4

# Record cards, as listed above. Order of values: KCNQ2 enhance | KCNQ2 enhance baseline
# COc1ccc(-c2noc(CCC(=O)NCc3cc(Br)ccc3OC)n2)cc1 as listed: 0.09 | 0.29
# Cc1ccccc1Cn1ccc(NC(=O)c2cc3nc(-c4ccco4)cc(C(F)(F)F)n3n2)n1 as listed: 0.32 | -1.9
# O=C(COC(=O)C1=COCCO1)Nc1cccc(Oc2ccccc2)c1 as listed: 2.2 | -0.49
# CC1=C(C#N)C(NC(=O)c2ccc(C)cc2)(C(F)(F)F)C(=O)N1 (stereo not given) as listed: 1.1 | -0.79
# COc1ccc(C(=O)CSc2nc3c(c(=O)n(C)c(=O)n3C)n2C)cc1 as listed: 1.2 | 0.12

# The results go on:
no.	compound	KCNQ2 enhance	KCNQ2 enhance baseline
16	Cc1cc(C)c(NC(=O)CCCN2CCCC2)c(C)c1	0.05	1
17	CCOc1ncccc1C(=O)OCC(=O)Nc1ccc(C(C)C)cc1	0.17	-1.5
18	Cc1onc(C(=O)N2CCC(Cc3ccccc3)CC2)c1[N+](=O)[O-]	0.74	0.95
19	O=S(=O)(c1cccc2nsnc12)N1CCN(C/C=C\c2ccccc2)CC1	0.42	-2.5
20	Cc1cc(NC(=O)CSc2nc3c([nH]c4ccccc43)c(=O)n2-c2cccc(C(F)(F)F)c2)no1	0.39	2.3
21	CC(C)C(=O)OCC(=O)Nc1ccc2c(c1)CCC2	0.99	1.1
22	Cc1cccc(OCC(=O)Nc2cccc(O)c2)c1	0.19	0.83
23	CCn1cc(C=C2C(=O)c3ccccc3C2=O)c2ccccc21	0.05	1.4
24	CCN1CCN(C(=O)c2cc(S(=O)(=O)Nc3ccc(S(C)(=O)=O)cc3)ccc2Cl)CC1	0.5	-0.45
25	C/C(CCc1ccccc1)=N\NC(=O)c1ccccc1	0.79	0.22
26	COCCN1Cc2cccc(C(=O)Nc3cc(OC)ccc3OC)c2C1=O	0.51	2.1
27	Cc1ncc(CN2CCN(C(C)C)C(CCO)C2)s1 (stereo not given)	0.73	-0.22
28	FC(F)(F)c1cccc(-n2cccc2/C=N/n2cnnc2)c1	0.76	0.66
29	C=CCOc1ccc(C2NC(=S)NC3=C2CCc2ccccc23)cc1 (stereo not given)	1.5	1.4
30	Cc1ccc(NC(=O)CN2C(=O)C3CC=C(Cl)CC3C2=O)cc1 (stereo not given)	0.01	1.1
31	Nc1nc(-c2ccc3c(c2)OCCO3)c(CC(=O)O)s1	0.22	-0.83
32	CC(CC(=O)NCc1ccccc1)C1CCCO1 (stereo not given)	0.93	-0.54
33	CCC1(c2ccccc2)NC(=O)N(CC(=O)Nc2ccc3c(c2)OCO3)C1=O (stereo not given)	0.14	0.32
34	O=C1C(C=Nc2ccccc2)=C(O)c2ccccc21	0.62	-2
35	COc1ccccc1N1CCN(C2CC(=O)N(c3ccc(F)cc3)C2=O)CC1 (stereo not given)	0.39	-0.33
36	Cn1c(SCC(=O)NC2CC2)nnc1-c1ccccc1	0.08	1.8
37	COc1ccc(S(=O)(=O)N[C@H](C(=O)N2CC[C@@]3(O)CCCC[C@H]3C2)c2ccccc2)cc1	0.36	0.87
38	CC(C)=CCOc1ccc([C@@H]2COc3c(ccc4c3C=CC(C)(C)O4)C2)c(O)c1	0.33	-0.77
39	CN(C)c1nc(C(F)(F)F)cc(=O)[nH]1	0.86	-0.03
40	CCOC(=O)C1=C(C)NC(=S)NC1C (stereo not given)	0.91	1.6
41	COCc1[nH]nc2c1C(c1cccc(OC)c1)C(C#N)=C(N)O2 (stereo not given)	0.61	0.17
42	Cc1cc(C)c(S(=O)(=O)c2ccccc2)c(OC(=O)c2cc(F)c(F)cc2Cl)n1	1.8	-3.1
43	Fc1ccccc1/C=N/Nc1ncnc2nc[nH]c12	0.57	2.4
44	CCSc1nc(N)c(C#N)c(-c2ccco2)c1C#N	1.1	1.3
45	N#Cc1ccccc1S(=O)(=O)N1CCN(CC(O)COc2ccccc2F)CC1 (stereo not given)	1.7	0.05
46	COc1ccc(C(=O)O/N=C2\CCS(=O)(=O)c3sccc32)cc1	0.85	-0.01
47	CN(CC(=O)Nc1ccccc1Cl)C(=O)COC(=O)c1ccccc1[N+](=O)[O-]	0.49	0.54
48	CNc1nc(OC)nc(N(C#N)CN2C(=O)c3ccccc3S2(=O)=O)n1	0.34	-0.08
49	O=C(c1ccc2nc(Cc3ccccc3F)oc2c1)N1CCCC1	0.38	0.49
50	CCOC(=O)N1CCc2c(sc3c2c(=O)n(-c2ccc(CC)cc2)c(=O)n3CC(=O)NCC2CCCO2)C1 (stereo not given)	0.17	1.2
51	Cc1[nH]c(=O)[nH]c(=O)c1S(=O)(=O)N1CCC(C(=O)NC(C)c2ccccc2)CC1 (stereo not given)	4.6	-1.5
52	CCC(C)NC(=O)C1CCN(S(=O)(=O)c2ccc(Br)s2)CC1 (stereo not given)	0.77	0.11
53	Cc1cc(OCC(F)(F)C(F)(F)C(F)(F)C(F)F)nc(N)n1	2.7	-0.93
54	Cc1ccnc(NC(=S)NC(=O)c2cncc(Br)c2)c1	0.12	0.45
55	COc1ccc(-c2noc(N3CCC(C(=O)Nc4cc(OC)ccc4OC)CC3)n2)cc1	0.51	0.6
56	COc1ccc(C2C(C(=O)O)CC(=O)N2c2ccc(OC)cc2)cc1 (stereo not given)	1.1	-1.6
57	O=C(c1ccc(S(=O)(=O)N2CCCCC2)cc1)N1CCN(Cc2ccc3c(c2)OCO3)CC1	0.01	-0.04
58	CN1CCN(C2=C(NS(=O)(=O)c3ccccc3)C(=O)c3ccccc3C2=O)CC1	0.02	1.7
59	CCC(=O)N(Cc1ccc2c(c1)OCO2)Cc1cc2cc(OC)ccc2[nH]c1=O	0.76	0.43
60	COc1ccc(N2CCN(C(=O)CSc3ccc([N+](=O)[O-])cc3)CC2)cc1	0.13	-1.4

# Three compounds from above, sorted by length of the SMILES, low to high:
no.	compound	KCNQ2 enhance	KCNQ2 enhance baseline
49	O=C(c1ccc2nc(Cc3ccccc3F)oc2c1)N1CCCC1	0.38	0.49
7	O=C(COC(=O)C1=COCCO1)Nc1cccc(Oc2ccccc2)c1	2.2	-0.49
60	COc1ccc(N2CCN(C(=O)CSc3ccc([N+](=O)[O-])cc3)CC2)cc1	0.13	-1.4

# Next section
no.	compound	KCNQ2 enhance	KCNQ2 enhance baseline
61	CCNC(=O)NC(=O)C(C)OC(=O)c1cccn1C (stereo not given)	0.99	0.43
62	CNC(=O)c1nnn(Cc2ccccc2)c1NC(C)=O	2.2	-0.31
63	O=C(NCCCl)Nc1cc([N+](=O)[O-])ccc1Cl	0.74	0.08
64	Cn1c(=O)c2c(ncn2CCOc2ccc(F)cc2)n(C)c1=O	2.8	1.4
65	NC(=O)c1ccccc1NC(=O)CSc1nc2c(c(=O)[nH]1)CCCC2	1.6	-0.25
66	Cc1ccc(OCCSc2ncnc3sc(C)c(C)c23)cc1C	0.52	0.4
67	CC(CCc1ccccc1)NC(=O)c1cccc([N+](=O)[O-])c1 (stereo not given)	0.41	-0.03
68	CCOC(=O)C1=C(N)c2ccccc2CC1C(C)C (stereo not given)	0.06	-1.9
69	Cc1ccc(NC(=O)COC(=O)[C@H](C)N2C(=O)C3CC=CCC3C2=O)cc1S(=O)(=O)N(C)C (stereo not given in full)	0.37	6
70	O=C(Nc1nnc(CCN2CCCCC2)s1)c1ccccc1Cl	1.9	-0.48
71	O=C(CN1CCN(C(c2ccccc2)c2ccccc2)CC1)N1CCOCC1	0.48	0.44
72	O=C(CSc1ncnc2ccccc12)NCCCO	1.6	-1.3
73	Cc1ccc(-c2noc(-c3ccccc3C(=O)NCc3ccco3)n2)cc1	1.1	-2.1
74	C/C(=N\NC(=O)c1ccccn1)c1ccc(Cl)cc1	0.51	-2.4
75	O=C(O)c1ccc(-c2ccccc2)[nH]c1=O	0.21	-1.8
76	O=C(c1ccc(NS(=O)(=O)c2ccc(Cl)cc2)cc1)N1CCOCC1	1.3	0.05
77	CC(C)n1c2ccccc2c2nnc(SCC(=O)Nc3ccccc3C(=O)O)nc21	0.7	0.01
78	CCOC(=O)C1(CC2CCCCO2)CCN(Cc2nccn2-c2cccc(C)c2)CC1 (stereo not given)	0.09	0.07
79	CCOC(=O)C1(CC2CCCCO2)CCN(S(=O)(=O)c2c(C)nn(C)c2C)CC1 (stereo not given)	0.16	0.94
80	CSc1ccc(/C=C(/NC(=O)c2ccc(C)cc2)C(=O)Nc2cccc(C)c2)cc1	0.17	-0.86
81	Cc1nnc(NC(=O)C2CC(=O)N(c3ccccc3)C2)s1 (stereo not given)	0.2	0.79
82	COc1ccccc1CNC(=O)COc1ccc(C)nc1[N+](=O)[O-]	0.34	0.93
83	CCOc1ccccc1NC(=O)NS(=O)(=O)c1ccc(C)cc1	0.03	0.82
84	Cc1ccc2[nH]c(=O)c(COC(=O)c3cccs3)cc2c1	1.6	-1.3
85	NC(=O)c1ccc(NC(=O)CCCNC(=O)c2ccc(Cl)cc2)cc1	0.27	1.5
86	O=C(c1ccc(F)cc1)N1CCCC(C(=O)N2CCN(c3ccccc3)CC2)C1 (stereo not given)	0.83	-2.8
87	N#CC1(NC(=O)CSc2n[nH]c(-c3ccccc3)n2)CCCCC1	1.1	0.78
88	O=S(=O)(NCc1ccc(Cl)cc1)c1cccc2cccnc12	0.01	-0.11
89	CCCCCCCCC(=O)NNC(=O)c1c(O)c2ccccc2n(CCC)c1=O	1.6	-0.2
90	CC1CN(S(=O)(=O)c2cccc(C(F)(F)F)c2)CN1C(=O)N1CCOCC1 (stereo not given)	1.3	0.25
91	Cc1ccc(-c2csc3nc[nH]c(=S)c23)cc1C	10*	0.01*
92	CC(CCN1CCN=C1Nc1ccccc1)c1ccccc1 (stereo not given)	0.52	1.3
93	COc1cccc(-c2csc(N3CCN(C(=S)Nc4ccccc4Cl)CC3)n2)c1	2.1	-0.4
94	Cc1ccc(NC(=S)NNC(=S)Nc2cccc(C(F)(F)F)c2)cc1	0.07	-0.27
95	NC(=O)COC(=O)c1sc2ccccc2c1Cl	0.01	0.81
96	OC(CN1CCOCC1)CN(c1ccccc1)c1ccccc1 (stereo not given)	1.1	-0.86
97	COC(=O)CS(=O)(=O)c1nnc([C@H](Cc2ccccc2)NC(=O)OC(C)(C)C)o1	4.2	1.7
98	Cc1ccccc1N1CCN(C2CCCN(C(=O)c3cc[n+]([O-])cc3)C2)CC1 (stereo not given)	0.04	-0.3
99	COc1ccccc1C(=O)NCCC(=O)NCCc1ccccc1	2	-0.02
100	COC(=O)Cc1ccc(NC(=S)NCc2ccccc2OC)cc1	0.34	0.01
101	CCOc1ccc(C2C(C#N)=C(N)SC(N)=C2C#N)cc1OCC	0.02	0.52
102	CC(C)(C)c1ccc(-c2cc(-c3ccccc3O)[nH]n2)cc1	0.93	-0.01
103	OC1(c2ccc(F)cc2)CCN(Cc2cccnc2)CC1	1.8	-1.4
104	COc1cc(/C=N\NC(=O)Cn2nnc3ccccc32)cc(OC)c1OC	0.39	0
105	Cc1cc(C=C2C(=O)c3ccccc3C2=O)c(C)n1-c1ccc(C(=O)O)cc1	0.7	-2.5
106	COCCN(C)Cc1nc(C(c2ccccc2)c2ccccc2)no1	1.2	-0.06
107	COc1ccccc1NC(=O)c1cc(OC)c(OC)cc1[N+](=O)[O-]	2.1	-2.1
108	O=C(C1CCN(S(=O)(=O)c2cccnc2)CC1)N1CCN(c2ccc(Cl)cc2)CC1	0.07	0.88
109	CC(C)NC(=O)C(Sc1ccccc1)c1ccccc1 (stereo not given)	4.5	-1.1
110	CCc1ccc(OCc2nnc(SCC(=O)NCc3ccco3)o2)cc1	1.7	-2
111	N#C/C(=C\c1c[nH]c2ccccc12)C(=O)NC1CC1	0.49	0.38
112	COc1ccc(C(=O)NCc2ccon2)cc1OC1CCN(C(C)C)CC1	0.54	-0.11
113	Cc1noc(C)c1S(=O)(=O)Nc1ccc(C(=O)N2CCCCC2)cc1	0.85	-0.27
114	CCOc1cccc(C(=O)Nc2nc(-c3ccc(S(=O)(=O)N4CCOCC4)cc3)cs2)c1	0.11	1.2
115	O=[N+]([O-])c1cccc(/C=N/Nc2nnc(-c3ccccc3)c(-c3ccccc3)n2)c1	0.49	0.87
116	Cc1ccc(NC(=O)Nc2cccc(C)n2)c(C)c1	0.24	1.4
